# Vaccinia Venus – inhibitors of vaccinia virus (Venus reporter); hit rate 0.46% among 330,000; Vaccinia virus Venus reporter expression, fluorescence; Potency, µM (titrated, usually from 36.5 µM), for inactives: at the top dose activity change, negative = inhibition, most hits filed as inhibitors; AID 720580; active means well fitted inhibition curve with a large enough effect; inconclusive means small, poorly fitted or top-dose-only effect; inactive means no such curve, though single readings can be large or run the other way; tested in A549 cells; further: nearly all actives have a fitted effect of over 30% in size; inactives centre near -10
# Vaccinia mCherry – inhibitors of vaccinia virus infection (mCherry reporter signal); hit rate 0.63% among 310,000; Potency, µM (highest dose often 36.5 µM), for inactives: at the highest dose activity change, negative = inhibition, most hits filed as inhibitors; Vaccinia virus mCherry reporter infection, fluorescence; about a quarter of the inactives have no number; AID 720579; active = well fitted inhibition curve with a large enough effect; inconclusive = small, poorly fitted or top-dose-only effect; inactive = no such curve, though single readings can be large or run the other way; tested in A549 cells; further: nearly all actives have a fitted effect of over 35% in size; inactives centre near -10
# Starred values were filed as active, the others as inactive; i = inactive; ? = inconclusive; / = no result given; & = joins results of further samples; [ ] = dose if it differs, or a comment. On the % scale 0 is the no-effect control and ±100 the full control effect; potency means the concentration at half of the fitted maximal effect.
SMILES,Vaccinia Venus,Vaccinia mCherry
COC(=O)CN(C#N)c1nc(N(C)C)nc(N(C)C)n1,-16%,-12%
Cc1cc(CN(C)C(=O)CC2C(=O)NCCN2CC(c2ccccc2)c2ccccc2)on1 (centres undefined),-4%,-4%
CCCCCCSc1nsc(NC(=O)CC(C)C)n1,-18%,i
COc1ccc(-n2nc(C(=O)NCC(=O)NCC3COc4ccccc4O3)c3ccccc3c2=O)cc1OC (centres undefined),-1%,i
CC1CN(CC(=O)Nc2cccc(C(=O)Nc3cccc(C(F)(F)F)c3)c2)CC(C)O1 (centres undefined),?,-13%
Cc1cccc(C)c1NC(=O)C(c1ccccc1)n1c(=O)c(-c2cc3ccccc3[nH]2)nc2ccccc21 (centres undefined),2%,-24%
Cn1nc(C(=O)Nc2ccccc2)c2c1-c1ccccc1S(=O)(=O)C2,4%,-10%
O=C(c1ccc(CN2CCOCC2)cc1)N1CCN(Cc2ccccc2)CC1,2%,-13%
COc1ccc2c(c1OC)C(=O)N1c3ccccc3SC21 (centres undefined),-16%,/
CCC(C)c1ccc(S(=O)(=O)N2CC(=O)Nc3ccccc32)cc1 (centres undefined),-18%,i
CCn1c2ccccc2c2cc(NC(=O)CSc3nccc(=O)[nH]3)ccc21,-2%,i
O=C(CSc1n[nH]c(-c2ccc(S(=O)(=O)NC3CCCCC3)cc2)n1)N1CCCC1,-15%,-4%
Nc1nc(N)nc(-c2ccccn2)n1,-7%,/
CC(=O)c1ccc(OCCCC(=O)N2CCN(S(=O)(=O)c3cc(C)ccc3C)CC2)cc1,-13%,-6%
Cc1ccc(S(=O)(=O)c2ccc(-n3nc(C)cc3N)cc2)cc1,-17%,-15%

# 2 entries from above, as tab-separated lines:
SMILES	Vaccinia Venus	Vaccinia mCherry
Cc1ccc(S(=O)(=O)c2ccc(-n3nc(C)cc3N)cc2)cc1	-17%	-15%
CCn1c2ccccc2c2cc(NC(=O)CSc3nccc(=O)[nH]3)ccc21	-2%	i

# Additional records:
SMILES,Vaccinia Venus,Vaccinia mCherry
CC1CN(C(=O)c2cc3cc([N+](=O)[O-])ccc3oc2=O)CC(C)O1 (centres undefined),-5%,i
COc1ccc(S(=O)(=O)NCC(c2ccco2)N2CCN(c3ccccc3)CC2)cc1OC (centres undefined),-1%,-8%
COc1ccc(S(=O)(=O)N2CCOCC2)cc1NC(=O)COC(=O)c1ccc([N+](=O)[O-])s1,-13%,0%
Cc1ccc(S(=O)(=O)NCCC(=O)OCC(=O)N2CCCC2=O)cc1,-5%,-14%
O=C(c1ccc(CNc2c(NC3CCCCC3)c(=O)c2=O)cc1)N1CCc2ccccc21,-8%,-6%
Cc1cccc(CSC2=NCCN2C(=O)C2CC2)c1,-11%,-13%
Cc1cc(C)cc(NC(=O)C(Cc2ccccc2)NS(=O)(=O)c2ccc3c(c2)CCC(=O)N3)c1 (centres undefined),9%,-1%
CC(C)c1ccccc1-n1c(SCC(=O)c2ccc3c(c2)NC(=O)CO3)nc2ccccc2c1=O,-23%,-16%
COc1ccccc1N=Cc1c(C)c(C#N)c2[nH]c3ccccc3n2c1=O,-16%,-18%
COc1ccc(C(=O)Nc2ccc(C(=O)N3CCC(C)CC3)cc2)cc1OC,-5%,-9%
COC(=O)c1cc(S(=O)(=O)Nc2cccc(C)c2C)cn1C,-20%,?
O=C(CSc1nnc(Cc2ccccc2)n1-c1ccc(Cl)cc1)N1CCOCC1,-12%,-1%
CCN(C(=O)c1ccc(S(=O)(=O)N2CCCCC2)cc1)C1CCS(=O)(=O)C1 (centres undefined),-10%,i
COCCOc1ccc(C(F)(F)F)cc1NC(=O)COC(=O)c1ccc(N2CCCC2=O)cc1,-7%,-19%
CCC(Sc1nc(C)cc(=O)[nH]1)C(=O)Nc1sc2c(c1C#N)CCCC2 (centres undefined),-9%,-20%
Cc1ccc(Nc2nn3c(=O)c4cc5c(cc4nc3s2)OCO5)cc1Cl,3%,1%
COc1cc(CN2CCCC(n3cc(C(=O)N4CCCCC4)nn3)C2)cc(OC)c1 (centres undefined),-28%,-26%
CCC(=O)c1ccc(OCC(=O)Nc2nc(-c3cccnc3)cs2)cc1,-3%,-12%
O=c1[nH]c2ccccc2c(=O)n1-c1ccc(Cl)cc1Cl,-19%,-10%
CC(C)c1nnc(N2C(=O)c3oc4ccccc4c(=O)c3C2c2ccccc2F)s1 (centres undefined),-4%,-1%
Cc1ccc(Cn2c(C)c(CNCc3ccccc3F)c(C(=O)O)c2C)cc1,3%,2%
O=C(C[n+]1cccc(NC(=O)c2ccccc2)c1)c1ccccc1,-5%,/
O=C(NCCC1=CCCCC1)C1CC(=O)N(Cc2ccccc2)C1 (centres undefined),-11%,i
Cc1ccccc1C(=O)OCc1cc(=O)n2nc(C3CCCCC3)sc2n1,-6%,-7%
CCOC(=O)c1cnc(NCc2ccc(Cl)cc2)c2ccccc12,-11%[7.34 µM],-3%[7.34 µM]
COc1ccccc1C(=O)NCCC(=O)N(C)Cc1ccc(C)o1,-3%,-19%
CC(=O)Nc1ccc(NC(=O)CSC2=NS(=O)(=O)c3ccccc3N2)cc1,2%,-25%
O=C(NCCc1nc2ccccc2n1Cc1ccc(Cl)cc1Cl)c1ccco1,-26%,-27%
COc1ccc(NC(=O)c2cc(S(=O)(=O)N3CCCCC3)c[nH]2)c(OC)c1,-14%,-1%
CCN1/C(=C/C=C/C=C/c2sc3ccccc3[n+]2CC)Sc2ccccc21,90%[activator],48%[activator]
CCOC(=O)[C@@]1(C#N)[C@@H]2C=CC(C(N)=O)=CN2[C@@H](C(N)=O)[C@@H]1c1cccc(Cl)c1,-6%,-15%
Cc1ccc(-c2noc(-c3ccccc3F)n2)cc1,-4%,-3%
N=C1C(c2nc3ccccc3[nH]2)=C(O)CN1c1ccc(F)cc1,-15%,/
O=C(NCCN1CCOCC1)C(Sc1ccccc1)c1ccccc1 (centres undefined),-14%,-22%
O=C(N=C1SC2CS(=O)(=O)CC2N1c1ccc(Cl)c(Cl)c1)C1CCCO1 (centres undefined),-6%,-16%
CSc1nc(C)cc(SCCO)n1,4%,-11%
O=C(O)CCNC(=O)c1ccccc1,-13%&-10%,-2%&-15%
CCOC(=O)c1c(S(=O)(=O)NCC(=O)N(C)c2ccc(C)cc2)c(C)n(C)c1C,-11%,0%
COc1cc(C(=O)COC(=O)c2cccs2)cc(OC)c1OC,1%,-2%
O=C(COc1ccc(Cl)cc1Cl)Nc1nnc(C2=COCCO2)o1,-1%,-2%
CCCCCCC[n+]1ccc(C)c2ccccc21,-27%,?
COc1ccc(OC)c(CNC(=O)C2CCN(S(=O)(=O)N3CCCC3)CC2)c1,0%,-12%
COC(=O)c1ccc(NS(=O)(=O)c2ccc3[nH]c(=O)oc3c2)cc1,-4%,i
COC(=O)c1ccccc1NS(=O)(=O)c1cc2c(cc1C)N(C)CCO2,-15%,-21%
Cc1cccc(NC(=O)COc2ccc(Br)cc2/C=N/O)c1,-16%,i
Fc1ccc(CN2C3=NCCN3c3ccccc32)cc1,-13%[7.34 µM],-22%[7.34 µM]
O=C(COC(=O)c1cc([N+](=O)[O-])ccc1NCc1ccccc1Cl)NCC(F)(F)F,-13%,-18%
CN(C)CCNC(=O)c1cccc2nc3c(ccc4ccccc43)nc12,11µM*,?
Nc1cnccn1,-4%,-7%
O=C(CN1CCCC1)Nc1c(Cl)cccc1Cl,-8%,i
CCOC(=O)c1[nH]c(CSc2nnc(-c3ccc(OC)cc3)o2)c(C(=O)OCC)c1C,6%,3%
COc1ccc(-n2c(Cc3cccn3C)nnc2SCC(=O)Nc2cccc(C)c2C)cc1,-4%,-6%
CCOC(=O)N1CCN(C(=O)COc2ccccc2OC)CC1,-10%,-9%
COCCNC(=O)C1CCCN(C(=O)Cc2ccc(F)cc2)CC1 (centres undefined),-5%,26%
COc1ccc(Cn2cc(CN3CCS(=O)(=O)N(Cc4ccc(-c5cccc(Cl)c5)cc4)C(C)C3=O)nn2)cc1 (centres undefined),?,?
CCCN(C(=O)c1noc2c1COc1ccc(C)cc1-2)c1ccc(Cl)c(Cl)c1,-9%,-1%
CCS(=O)(=O)c1ccc2oc(SCC(=O)NCCc3ccccc3)nc2c1,?,13µM*
COc1ccc(S(=O)CC(=O)Nc2ccc(Cl)cc2Cl)cc1 (centres undefined),0%,-12%
CC(CCN1C(Nc2ccccc2)=NC[C@@H]1C)c1ccccc1 (some centres undefined),-13%,-7%
COc1cc(C(=O)NC(C)c2ccc(-n3ccnc3)cc2)cc(OC)c1C (centres undefined),-19%,-22%

# Reformatted with values under each structure: part of the list above
# Values in the order: Vaccinia Venus | Vaccinia mCherry
CCn1c2ccccc2c2cc(NC(=O)CSc3nccc(=O)[nH]3)ccc21
→ -2% | i
COc1ccc(S(=O)(=O)NCC(c2ccco2)N2CCN(c3ccccc3)CC2)cc1OC (centres undefined)
→ -1% | -8%

# One compound at a time, from the list above. Order of screens: Vaccinia Venus, Vaccinia mCherry
# Record of O=C(CN1CCCC1)Nc1c(Cl)cccc1Cl → -8%, i
# Record of Nc1cnccn1 → -4%, -7%
# Record of O=C(COC(=O)c1cc([N+](=O)[O-])ccc1NCc1ccccc1Cl)NCC(F)(F)F → -13%, -18%
# Record of COc1ccc(S(=O)CC(=O)Nc2ccc(Cl)cc2Cl)cc1 (centres undefined) → 0%, -12%
# Record of COCCNC(=O)C1CCCN(C(=O)Cc2ccc(F)cc2)CC1 (centres undefined) → -5%, 26%

# Additional entries.
SMILES,Vaccinia Venus,Vaccinia mCherry
O=C(Cc1cccc(NC(=O)C2CCCN(C(=O)C3CCCC3)C2)c1)Nc1ccc(C(=O)N2CCOCC2)cc1 (centres undefined),-1%,i
Cc1cc(C)c(NC(=O)Nc2ccc3snnc3c2)c(C)c1,-6%,0%
CCC(C(=O)NCCN1CCN(C)CC1)n1c(C)c2cnn(-c3ccccc3)c(=O)c2c1C (centres undefined),-15%,-13%
O=C(Nc1ccccc1Br)N1CCN2CCCCC2C1 (centres undefined),-10%,-6%
O=C(c1ccc(C(F)(F)F)cc1)N1CCC(=O)N([C@H](COCc2ccc(Cl)cc2)Cc2ccccc2)CC1,-9%,-10%
O=C1CCCCCN1CP(=O)(O)CN1CCCCCC1=O,-11%,-18%
Cc1ccc(C(=O)OCC(=O)Nc2cc(S(C)(=O)=O)ccc2Cl)cc1S(=O)(=O)N1CCCCC1,-13%,i
O=S(=O)(CS(=O)(=O)c1ccccc1)c1ccccc1,-19%,i
O=[N+]([O-])c1cccc(C=NNc2ccc3ccccc3n2)c1O,?,?
CC(C)n1c(=O)c2ccccc2n1Cc1cn(C2CCCC2)nn1,12%,2%
Nc1sc(-c2ccccc2)cc1C(=O)N1CCNCC1,14%,?
COc1ccccc1N1CCN(C2CCCN(C(=O)c3ccnc4ccc(C)cc34)C2)CC1 (centres undefined),-18%,?
CCOc1cc(S(=O)(=O)NCCc2c(C)[nH]c3ccc(C)cc23)ccc1F,-11%,-7%
COc1ccc(NC(=O)N(C)C[C@H]2Oc3ccc(NC(=O)Nc4c(C)noc4C)cc3C(=O)N([C@H](C)CO)C[C@@H]2C)cc1,-18%,-29%
O=C(Cc1ccc(NC(=O)C2CCCN(C(=O)C3CCCCC3)C2)cc1)Nc1cccc(C(=O)N2CCCCC2)c1 (centres undefined),0%,-12%
COc1ccc(CCN2CC(C(=O)N(C)Cc3ccc4nsnc4c3)CCC2=O)cc1 (centres undefined),-24%,-29%
CC(C)Oc1ccc(CNC(=O)C2=Cc3ccccc3OC2)cc1,-10%,-6%
CCN(CC)C(NC(=O)c1ccccc1)C(=O)c1ccccc1 (centres undefined),-16%,/
CCOc1c(Cl)cc(Cl)cc1CNCCSc1nnnn1C,-6%,-1%
CC(C)CC(NC(=O)OCc1ccccc1)C(=O)NC(Cc1ccccc1)C(=O)CCl (centres undefined),-21%,-13%
O=C1/C(=N\S(=O)(=O)c2cccs2)C([n+]2ccc(CCCc3ccccc3)cc2)=C([O-])c2ccccc21,-2%,-5%
Cc1cc(C)n2cc(CSc3nncn3C)nc2n1,2%,10%
COc1ccc(/C=N/Nc2cc(OC)ncn2)cc1,-11%,i
CN(C)S(=O)(=O)c1ccc(C(=O)Oc2cc(=O)[nH]c3ccccc23)cc1,6%,-7%
Cc1nc(-c2ccccc2)cn2c1nc1ccccc12,-17%,i
COc1ccc(CNC(=O)c2sc(=O)n(Cc3cc(Cl)ccc3OC)c2C)cc1,-2%,12%
CC(CC(=O)O)CC(=O)Nc1cc(C(F)(F)F)cc(C(F)(F)F)c1 (centres undefined),-13%,-1%
O=C(Nc1c2c(nn1-c1ccc(F)cc1)CS(=O)C2)c1ccco1 (centres undefined),-4%,-4%
CN(CCc1ccccn1)C(=O)CCC1CCCN(C(=O)c2cccc(N(C)C)c2)C1 (centres undefined),-11%,-6%
CN(CCc1ccccc1)C(=O)c1cccc(NC(=O)Cc2cccc(NC(=O)C3CCCN(C(=O)CCc4ccccc4)C3)c2)c1 (centres undefined),-11%,?

# Overlap with the part before: 2 compounds, then new ones.
SMILES,Vaccinia Venus,Vaccinia mCherry
CN(CCc1ccccn1)C(=O)CCC1CCCN(C(=O)c2cccc(N(C)C)c2)C1 (centres undefined),-11%,-6%
CN(CCc1ccccc1)C(=O)c1cccc(NC(=O)Cc2cccc(NC(=O)C3CCCN(C(=O)CCc4ccccc4)C3)c2)c1 (centres undefined),-11%,?
Cc1ccc(C)c(NC(=O)CN(C)C(=O)c2ccccn2)c1,-2%,-2%
C=CCC[C@@H](Cc1ccc(F)cc1)C(=O)OC[C@@H]1CCCN1C(=O)[C@@H](CC=C)CC(=O)N[C@@H](CO)Cc1ccccc1,?,-11%
CN(CCc1ccccc1)C(=O)c1ccc(NC(=O)Cc2cccc(NC(=O)C3CCN(C(=O)C4CC4)CC3)c2)cc1,-10%,-7%
Clc1ccc(CN2C3=NCCCN3c3ccccc32)cc1Cl,-21%,-1%
